VACV Venus inh – vaccinia inhibition (Venus reporter); Vaccinia virus Venus reporter expression, fluorescence; Potency, µM (titrated, usually from 36.5 µM), inactives show at the highest dose activity change, negative = inhibition, most hits filed as inhibitors; 330,000 compounds, 0.46% hits; AID 720580; active means well fitted inhibition curve with a large enough effect; inconclusive means small, poorly fitted or top-dose-only effect; inactive means no such curve, though single readings can be large or run the other way; tested in A549 cells; note: nearly all actives have a fitted effect of over 30% in size; inactives centre near -10
Vaccinia mCherry – inhibitors of vaccinia virus infection (mCherry reporter signal). Potency, µM (doses to about 36.5 µM), for the others: top-dose activity change, negative = inhibition, usual class: inhibitors. AID 720579. 310,000 compounds, 0.63% hits. Vaccinia virus mCherry reporter infection, fluorescence; about a quarter of the inactives have no number; active = well fitted inhibition curve with a large enough effect; inconclusive = small, poorly fitted or top-dose-only effect; inactive = no such curve, though single readings can be large or run the other way; tested in A549 cells; note: nearly all actives have a fitted effect of over 35% in size; inactives centre near -10
Starred values were filed as active, the others as inactive; i = inactive; ? = inconclusive; · = no result given; [ ] = dose if it differs, or a comment. % is set by controls: 0 for no effect and ±100 for the full control effect; potency is the fitted concentration of half-maximal effect.

mol | VACV Venus inh | Vaccinia mCherry
COc1ccc(N2CCN(C(=O)CN=C3NS(=O)(=O)C(c4ccc(C)cc4)=C3C)CC2)cc1 | -30% | ?
CC(C(=O)N1c2ccc(F)cc2CCC1C)N1C(=O)c2ccccc2C1=O (stereo unspecified) | 3% | 5%
CC1CN(C(=O)COC(=O)c2ccc(Cl)c(N)c2)CC(C)O1 (stereo unspecified) | 0% | i
O=S(=O)(c1cccc2ccccc12)N1CCC2CC1c1cc(-c3ccc(F)cc3)ccc12 (stereo unspecified) | -13% | i
COc1ccc(C(=O)Nc2ccc(S(=O)(=O)Nc3onc(C)c3C)cc2)cc1 | 5% | ·
CCC(C)(C)NC(=O)C1CCN(S(=O)(=O)c2c(C)noc2/C=C/c2ccc(C)cc2)CC1 | -13% | -13%
COc1ccc(NC(=O)Cc2c(Cl)cccc2Cl)cn1 | 0% | 2%
COc1ccc2oc(C(=O)OCC(=O)Nc3ccc(NC(C)=O)cc3)c(C)c2c1 | -8% | -16%
CCc1cc2c(=O)c(-c3nc4ccccc4[nH]3)coc2c(CN2CCCCC2C)c1O (stereo unspecified) | -3%[7.34 µM] | -16%[7.34 µM]
COc1ccccc1CNS(=O)(=O)c1ccc(C)cc1 | -6% | -11%
CCN1C(=O)CC(Sc2ccccc2N)C1=O (stereo unspecified) | -19% | ·
CNc1ccnc(-c2ccccc2C(F)(F)F)n1 | -7% | -1%
C=C1NN(Cc2ccccc2)C(=O)N1c1ccc(OCc2ccccc2)cc1 | -12% | i
Cc1cc(CNC(=O)C(C)n2cc([N+](=O)[O-])cn2)c2ccccc2n1 (stereo unspecified) | -9% | i
CC(CN1CCCC1)OC(=O)c1ccccc1Cl (stereo unspecified) | -10% | -17%

Some of the entries so far, field by field.
CC1CN(C(=O)COC(=O)c2ccc(Cl)c(N)c2)CC(C)O1 (stereo unspecified)
  VACV Venus inh = 0%
  Vaccinia mCherry = i
O=S(=O)(c1cccc2ccccc12)N1CCC2CC1c1cc(-c3ccc(F)cc3)ccc12 (stereo unspecified)
  VACV Venus inh = -13%
  Vaccinia mCherry = i
COc1ccc(C(=O)Nc2ccc(S(=O)(=O)Nc3onc(C)c3C)cc2)cc1
  VACV Venus inh = 5%
  Vaccinia mCherry = ·
CCC(C)(C)NC(=O)C1CCN(S(=O)(=O)c2c(C)noc2/C=C/c2ccc(C)cc2)CC1
  VACV Venus inh = -13%
  Vaccinia mCherry = -13%

Continued:
mol | VACV Venus inh | Vaccinia mCherry
CN1CCN(c2ccc(S(=O)(=O)N3CCCCC3)cc2NC(=O)c2ccc(C#N)cc2)CC1 | -4% | -13%
OC(COc1cccc2ccccc12)CN1CCN(c2ccccc2Cl)CC1 (stereo unspecified) | ? | -29%
CC(C)CC(=O)Nc1c2c(nn1-c1ccc([N+](=O)[O-])cc1)CS(=O)(=O)C2 | -9% | -19%
COc1cc(/C=C/C(=O)OC(C)C(=O)c2ccccc2)cc(OC)c1OC (stereo unspecified) | -10% | -15%
CCC(C)(C)C(=O)Nc1cccc(Cl)c1C | -6% | -1%
O=C(CNC(=O)c1ccco1)OCc1ccc(Cl)cc1 | -8% | -25%
CC(=O)Nc1cc2c3ccccc3ccc2c2ccccc12 | -1% | i
S=C(NCCCc1cnc[nH]1)NCCCN(Cc1ccc(Cl)cc1)c1ccc(-c2ccccc2)cn1 | ? | -23%
CCN(c1ccc(NC(=O)CCNC(=O)c2ccco2)cc1)C(C)C | -11% | -2%
CCn1c2ccccc2c2nc3cc(C(=O)O)ccc3nc21 | ? | -12%
Cc1ccccc1Nc1nc(N)nc(COC(=O)CCNS(=O)(=O)c2ccccc2)n1 | -15% | -10%
Cc1nc2sc(C(c3cccs3)N3CCC(C(N)=O)CC3)c(O)n2n1 (stereo unspecified) | 10% | -12%
CN(C)CC(C)(C)CNC(=S)Nc1cc(S(=O)(=O)N2CCOCC2)ccc1Cl | -20% | -9%
COc1ccc(/C=C(\C#N)C(=O)NCC(c2ccc(F)cc2)N2CCOCC2)cc1 (stereo unspecified) | 11% | -1%
CC(=O)n1c(=O)c2ccccc2c(=O)n1-c1ccccc1 | -6% | -14%
CCOc1ccc(C(=O)NC(=S)NCc2cccnc2)cc1[N+](=O)[O-] | -8% | -12%
Cc1ccnc(NC(=O)c2ccc3c(c2)S(=O)(=O)c2ccccc2C3=O)c1 | 11% | i
CCOC1=C2CN(S(=O)(=O)c3ccc(C)cc3)CC[C@@H]2N(S(=O)(=O)c2ccc(C)cc2)[C@H](c2ccccc2)C1 | -4% | 3%
CC(NC(=O)CC1Nc2ccccc2NC1=O)c1ccccc1 (stereo unspecified) | -20% | i
Cn1cc(/C=N\O)nc2c(=O)n(-c3ccccc3)c(=O)nc1-2 | 39%[activator] | -12%
COCCOc1cc(-n2ccnc2SC)c(Cl)cc1Cl | -14% | ·
CCOc1ccccc1NC(=O)COC(=O)CNS(=O)(=O)c1ccc(C)cc1 | 4% | i
COc1ccc(C(=O)Nc2ccc3c(c2)OCCO3)c(OC)c1 | -10% | i
NC1=NC(=O)/C(=C/c2ccccc2OCC(=O)Nc2ccc(F)cc2)S1 | 1% | i
Cc1ccc(-c2nc(CS(=O)(=O)CC(=O)Nc3ccc(Br)cc3F)c(C)o2)cc1 | -3% | -14%
COc1ccc2c(c1OC)C(=O)N(c1ccc(O)cc1)C2=O | -8% | 3%
COc1ccccc1NC(=O)c1ccc(NC(=O)CSc2ncccn2)cc1 | 0% | i
O=C(N/N=C/c1c(O)n(CCc2ccccc2)c(=O)[nH]c1=O)c1ccccc1 | -8% | -14%
O=S(=O)(c1ccc(Br)cc1)c1nc(-c2ccco2)oc1SCc1ccccc1F | -18% | -10%
C[C@@H]1ON(C)[C@H]2C[C@H]3c4cc(-c5cccc(F)c5)ccc4CCN3C(=O)[C@@H]12 | -10% | i
Cc1ccc(Cl)cc1N1CCN(c2nc3ccc(C(=O)c4ccccc4)cc3n3cnnc23)CC1 | -9% | -9%
O=Cc1ccc(OCc2cccc(C(F)(F)F)c2)cc1O | -9% | -1%
COc1cccc2cc(-c3csc(-c4ccc(Cl)cc4)n3)c(=O)oc12 | -1% | -8%
Cc1ccc(SCCNC(=O)c2ccc(CN3CCOCC3)cc2)cc1 | -1% | -13%
CN1CCN(CC(=O)N2c3ccccc3C(C)(c3ccc(Cl)cc3)CC2(C)C)CC1 (stereo unspecified) | ? | ·
O=C(Cc1cccs1)N(c1ccccc1)C1C=CS(=O)(=O)C1 (stereo unspecified) | -3% | -5%
Cc1ccc(/C=N/NC(=O)C[n+]2ccccc2)s1 | -10% | -24%
CC(Sc1nnc(-c2ccncc2)n1C)C(=O)Nc1nccs1 (stereo unspecified) | -4% | -3%
Cc1ccc(SCC(=O)Nc2ncc(C)s2)cc1 | -12% | -14%
Cc1ccc(C2=NS(=O)(=O)N(C)C(C(=O)Nc3ccc4c(c3)OCO4)=C2)cc1 | -11% | -16%
CCOc1ccccc1-n1nnnc1SCC(=O)NCc1ccco1 | -28% | i
O=C1C(=O)N(CCO)C(c2ccccc2[N+](=O)[O-])/C1=C(\O)c1ccccc1 (stereo unspecified) | 1% | -3%
CS(=O)(=O)N(CC(=O)NC1CC2CCC1C2)c1ccc(Oc2ccccc2)cc1 (stereo unspecified) | -20% | ?
Cc1ccc(C)c(NS(=O)(=O)c2cc(C(=O)NCC3CCCO3)ccc2C)c1 (stereo unspecified) | -18% | -2%
N#Cc1ccc(C23CC4(C2)[C@H](CN(Cc2ccc(C(F)(F)F)cc2)[C@@H]4c2ccccc2)C3c2ccc(C(F)(F)F)cc2)cc1 (stereo partly specified) | -8% | i

The results go on:
Every second line gives: VACV Venus inh, Vaccinia mCherry
CC1=C(C(=O)OCc2ccccc2)C(c2cccc(F)c2)NC(=O)N1 (stereo unspecified)
→ -14%, i
CCOC(=O)Cc1csc(N/N=C/c2cccc([N+](=O)[O-])c2)n1
→ -18%, -22%
COc1cc(C)c(C(=O)Oc2cc(C)c(C(=O)O)c(O)c2C)c(O)c1C(=O)O
→ 6%, i
CCCn1c(SCC(=O)Nc2ccc(S(=O)(=O)N(C)C)cc2)n[nH]c1=O
→ 5%, 3%
Cc1cccc(C)c1NC(=O)C1(NC(=O)c2cnccn2)CCCCC1
→ -13%, -3%
COc1cc(OC)cc(C(=O)N2CCN(C(=O)COc3ccc4ccccc4c3)CC2)c1
→ 30%, 17%
O=C(c1cc(COc2ccc(F)cc2Cl)on1)N1CCc2ccccc2C1
→ -14%, i
CC(=O)O[C@@H]1/C=C/[C@](C)(O)C[C@@H](C)C/C=C/[C@H]2[C@@H]3O[C@]3(C)[C@@H](C)[C@H]3[C@H](Cc4ccccc4)NC(=O)[C@@]312
→ ?, ?
NC(=O)c1nsc(C(=O)N(c2ccccc2)C(C(=O)NC2CCCCC2)c2ccc(O)cc2)c1N (stereo unspecified)
→ -23%, -7%
NS(=O)(=O)c1ccc(NC(=O)COC(=O)CCNC(=O)NC23CC4CC(CC(C4)C2)C3)cc1
→ ?, ?
C=C(C)CNC(=S)Nc1cccc(N)n1
→ -10%, i
Cc1nc2ccccc2n1Cc1ccc(Cl)cc1
→ ?, -10%
Cc1ccc(Cn2c(CNS(=O)(=O)c3c(C)cc(C)cc3C)nc3cccnc32)cc1
→ -16%, -23%
Cc1ccccc1-c1nc(CS(=O)(=O)CC(=O)NC2CCCCC2C)c(C)o1 (stereo unspecified)
→ -22%, i
C/C(=N\NC(=O)c1cc(C)[nH]n1)c1ccc(-c2ccccc2)cc1
→ -7%, -6%
CCN(CC)C(=O)c1c(-c2ccccc2)oc2ccc(OC)cc12
→ 0%, -10%
COCCCn1c(SCC(=O)Nc2oc(C)c3c(C)n[nH]c(=O)c23)nc2sc3c(c2c1=O)CCC3
→ -13%, i
O=S(=O)(c1ccc(SCCOc2cccc(Br)c2)nc1)N1CCCC1
→ -21%, -7%
O=C(O)Cn1nc(-c2ccccc2)ccc1=O
→ -9%, -4%
CCOC(=O)c1[nH]c2cc3c(cc2c1NC(=O)CN1CCc2ccccc2C1)OCO3
→ ?, ?
O=C(Nc1ccc(N2CCCCC2)c(Cl)c1)c1ncn[nH]1
→ -15%, ·
Cc1ccc(Cn2nc(C)c(C=O)c2Cl)cc1
→ -3%, -5%
COc1cccc(SCC2(O)CCN(C(=O)c3ccc(Cl)cc3)CC2)c1
→ -24%, -29%
C=C1C=C(C(F)(F)F)n2ncc(C(=O)NCc3ccc(F)cc3)c2N1
→ -14%, 0%
Nc1ccn([C@@H]2O[C@H](CNCc3ccc(N4CCNCC4)cc3)[C@@H](O)[C@H]2O)c(=O)n1
→ 5%, -17%
CCN(CC)CCNC(=O)c1ccc(NS(=O)(=O)c2ccc3c(c2)OCCO3)cc1
→ -11%, -12%
O=C(CSc1nnc(CNC(=O)c2cccc(C(F)(F)F)c2)o1)NCc1ccco1
→ -5%, -3%
CS(=O)(=O)c1ccc(SCC(=O)NC2CCS(=O)(=O)C2)c([N+](=O)[O-])c1 (stereo unspecified)
→ -10%, -19%
NC(Cc1nc2ccccc2[nH]1)c1ccc(Cl)cc1 (stereo unspecified)
→ -7%, 0%
Cc1ccc(OCC(=O)N2CCN(S(=O)(=O)c3ccccc3)CC2)c([N+](=O)[O-])n1
→ -11%, -15%

The last 3 compounds of the section above lead into the next.
Every second line gives: VACV Venus inh, Vaccinia mCherry
CS(=O)(=O)c1ccc(SCC(=O)NC2CCS(=O)(=O)C2)c([N+](=O)[O-])c1 (stereo unspecified)
→ -10%, -19%
NC(Cc1nc2ccccc2[nH]1)c1ccc(Cl)cc1 (stereo unspecified)
→ -7%, 0%
Cc1ccc(OCC(=O)N2CCN(S(=O)(=O)c3ccccc3)CC2)c([N+](=O)[O-])n1
→ -11%, -15%
Cc1ccc(-n2c(C)cc(/C=C3\C(=O)NC(=O)N(C)C3=O)c2C)cc1C
→ -8%, -16%
COc1cc(OC)cc(C(=O)N2CCN(C(=O)c3cccc(F)c3)CC2)c1
→ -9%, -13%
CCCCOC(=O)NCN1C(=O)C2C3C=CC(C3)C2C1=O (stereo unspecified)
→ -5%, ·
Cc1ccn2c(C(=O)CSc3ccc(Cl)cc3Cl)c(C)nc2c1
→ -8%, -1%
O=C(CNC(=O)c1cccs1)Nc1cccc(S(=O)(=O)N2CCOCC2)c1
→ -9%, i
O=C(NCCN1CCN(C(=O)c2cccc(Br)c2)CC1)C(=O)Nc1ccc(Br)cc1
→ -17%, i
CN=C1SC(CC(=O)Nc2cccc(Cl)c2Cl)C(=O)N1C (stereo unspecified)
→ -9%, -12%
CCn1c(SCC(=O)Nc2ccc(N3CCOCC3)cc2)nnc1-c1ccco1
→ -3%, -8%
Cc1cccc(C(=O)Oc2ccc(/C=N/NC(=O)c3ccncc3)cc2)c1
→ -6%, -15%
Cc1ccsc1-c1cc2nc(NCCOc3ccccc3Cl)n(C)c(=O)c2s1
→ -1%, i
O=C1[C@@H]2Cc3c([nH]c4ccccc34)CN2C(=O)CN1CCO
→ -12%, i
CC(=O)Nc1ccc(S(=O)(=O)N2CCN(C(=O)c3ncoc3-c3ccc(C)cc3)CC2)cc1
→ -12%, -17%
CC(C)CSC1=NSC2=NC(=O)/C(=C\c3ccccc3)C(=N)N12
→ -14%, -22%
CCCCC(CC)CNC(=O)CC1Nc2c3ccccc3nc(=S)n2C1=O (stereo unspecified)
→ -3%, -4%
CCCn1c(C)cc(C(=O)Cn2nnc3ccccc3c2=O)c1C
→ -6%, i
Cc1cccc(C(=O)N2CCCC(c3nc(-c4ccc(C)o4)no3)C2)c1 (stereo unspecified)
→ 7%, -23%
